Screening results deposited in PubChem BioAssay by National Center for Advancing Translational Sciences (NCATS).
Rango release inh – qHTS Assay for Inhibitors of RanGTP induced Rango (Ran-regulated importin-beta cargo) - Importin beta complex dissociation; Biochemical FRET Rango-importin beta, RanGTP-induced dissociation; Potency, µM (series often up to 46.1 µM), for inactives: at the top dose activity change, negative = inhibition; actives 0.071% (n = 340,000); AID 540253, 2011; active means falling FRET ratio curve, often poorly fitted, with flat reads before Ran was added; inconclusive means other falling curves, or compound fluorescence or quenching; inactive means flat or rising ratio curve;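 note: potency is the fitted concentration of half-maximal effect; % of control where 0% means no effect; nearly all actives have a fitted effect of over 45% in size; -100% = wells without RanGTP and RCC1; the record marks most hits as doubtful in a second field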
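Recombinant Rango FRET biosensor (EYFP–snurportin 1 IBB–cerulean CFP10) at 0.1 uM premixed with 0.25 uM importin beta in PBS, 1 mM DTT, 0.02% Tween-20, 0.1% BSA. Compound added 5 min; RanGTP-RCC1 (0.6 uM Ran, 2 mM GTP, 0.2 uM RCC1) then triggers release, read at 45 min.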
GLA inh pH 4.5 – qHTS Assay for Inhibitors of Human alpha-Galactosidase at pH 4.5. purified enzyme, 4-MU-alpha-Gal fluorescence, pH 4.5. 230,000 tested, under 10 active. AID 1467, 2008. Alpha-galactosidase A (Homo sapiens), P06280. activity change, negative = inhibition, % at 105 µM; inconclusive = small, poorly fitted or top-dose-only inhibition, or a rising curve; inactive = flat fitted curve, though single readings scatter; no compound was filed as active;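 note: 0% = full activity with enzyme and -100% = basal without enzyme; dose as in the result columns while the protocol names 77 µM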
Target sequence (P06280 whole entry, looked up): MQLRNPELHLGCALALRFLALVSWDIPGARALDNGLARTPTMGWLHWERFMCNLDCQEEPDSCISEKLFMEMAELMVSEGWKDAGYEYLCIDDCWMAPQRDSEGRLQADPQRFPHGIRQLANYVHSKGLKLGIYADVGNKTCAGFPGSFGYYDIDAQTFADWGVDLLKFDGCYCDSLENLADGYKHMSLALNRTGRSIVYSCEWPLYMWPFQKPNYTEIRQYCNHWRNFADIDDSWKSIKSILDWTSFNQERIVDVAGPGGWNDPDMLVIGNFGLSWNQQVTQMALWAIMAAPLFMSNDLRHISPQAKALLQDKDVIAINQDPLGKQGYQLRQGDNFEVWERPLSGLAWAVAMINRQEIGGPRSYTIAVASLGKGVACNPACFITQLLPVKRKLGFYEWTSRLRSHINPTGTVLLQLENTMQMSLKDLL
Rango-impB inh – qHTS Assay for Inhibitors of Rango (Ran-regulated importin-beta cargo) - Importin beta complex formation | Importin subunit beta-1 (Homo sapiens), Q14974 | Potency, µM (top dose mostly 92.2 µM), inactives show top-dose inhibition of complex formation | Rango CFP/YFP FRET sensor + importin beta, 45 min | actives 0.031% (n = 340,000); active = rising FRET ratio curve, often small or poorly fitted; inconclusive = mostly compound fluorescence or quenching in the first reads; inactive = flat curves in all reads;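 note: potency is the fitted concentration of half-maximal effect; 0% = DMSO wells and 100% = buffer wells lacking importin beta; nearly all actives have a fitted effect of over 15% in size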
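Inhibition scored from the CFP 486 nm/YFP 530 nm FRET ratio 45 min after adding 0.125 microM importin beta to 50 nM Rango biosensor preincubated 5 min with compound (room temperature, PBS with DTT, Tween-20, BSA). No-importin wells as positive control.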
miR-21 reporter – qHTS Assay for Modulators of miRNAs and/orActivators of miR-21. HeLa miR-21 FLuc reporter, luciferase, 48 h. Potency, µM (highest dose often 38.3 µM), without a hit: at the top dose reporter change, positive = more light. 340,000 tested, under 10 active; active = well fitted rising curve with a large enough effect; inconclusive = small, poorly fitted or top-dose-only effect; inactive = no such curve, though single readings can be large or run the other way;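 note: % of control where 0% means no effect; miR-21 action dims this reporter so a rising signal means less miR-21 action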
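HeLa cells stably expressing CMV-driven firefly luciferase with a downstream miR-21 binding sequence, endogenously expressing miR-21, were treated with titrations (up to about 40uM final) for 48 hours at 37 degree Celsius. Luciferase luminescence was read after lysis.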
* marks the source's active call; other numbers are inactive results; ? = inconclusive; · = no result given; & = joins results of further samples; [ ] = remark or other dose. An excerpt; rates above refer to the full screens.

Preview (15 entries):
SMILES	Rango release inh	GLA inh pH 4.5	Rango-impB inh	miR-21 reporter
CCN(C[C@H]1N[C@@](Cc2ccccc2)(C(=O)OC)[C@H]2C(=O)N(Cc3ccccc3)C(=O)[C@@H]12)C(=O)c1ccc(F)cc1	-16.4%	·	-4.9%	·
C#CC[N+]1(CC#Cc2ccccc2)CCCC1	-0.4%	-24.7	1.1%	-0.8%
Cc1ccc2nc3c(cc(C(N)=S)c(=N)n3CCCOC(C)C)c(=O)n2c1	?	-2.5	?	17.0%
Cn1c(=O)c2c(ncn2CC(=O)NC(C)(C)C)n(C)c1=O	15.8%	15.1	-3.0%	0.0%
CC(C)(C)OC(=O)N1CCN(CCNC(=O)c2ccccc2)CC1	0.4%	·	-2.0%	-4.1%
CCOc1ccc2[nH]c(=O)c(CN(CCc3ccccc3)C(=O)c3cnccn3)cc2c1	-19.7%	-5.4	2.7%	-4.1%
COC(=O)c1c(C(=O)OC)c(-c2ccccc2)n2c1CS(=O)C2 (centres undefined)	0.4%	-4.5	0.3%	-2.0%
CCOc1ccccc1/C=N/N1CCN(Cc2ccccc2)CC1	-1.6%	·	2.9%	8.8%
Cc1cccc(NS(=O)(=O)c2cccc(C(=O)N3CCC3)c2)c1	-5.6%	·	6.0%	·
CCCCOn1c(C)c(C(=O)OCC)c2c3nonc3ccc21	10.2%	·	-2.6%	·
OC1(c2ccccc2F)CCN(Cc2nnnn2Cc2ccc(F)cc2)CC1	1.9%	-0.9	-0.9%	-5.4%
Cc1ccc(CCC(=O)Nc2ncc(Cc3cccc(Cl)c3Cl)s2)o1	-7.6%	-7.5	-4.6%	23.7%
COc1cc(C(=O)Oc2cc(C)[nH]c(=O)c2[N+](=O)[O-])cc(OC)c1OC	-13.6%	-3.7	4.7%	-0.7%
CCNc1nc(NCC)nc(OCCOC(=O)COc2ccc(Cl)cc2Cl)n1	4.0%	-11.0	0.2%	-2.8%
CC1CCN(Cc2ccc(-c3nn[nH]n3)cc2)CC1	-9.8%	-9.3	-3.1%	-1.8%

The list itself (from the top)
SMILES	Rango release inh	GLA inh pH 4.5	Rango-impB inh	miR-21 reporter
CCN(C[C@H]1N[C@@](Cc2ccccc2)(C(=O)OC)[C@H]2C(=O)N(Cc3ccccc3)C(=O)[C@@H]12)C(=O)c1ccc(F)cc1	-16.4%	·	-4.9%	·
C#CC[N+]1(CC#Cc2ccccc2)CCCC1	-0.4%	-24.7	1.1%	-0.8%
Cc1ccc2nc3c(cc(C(N)=S)c(=N)n3CCCOC(C)C)c(=O)n2c1	?	-2.5	?	17.0%
Cn1c(=O)c2c(ncn2CC(=O)NC(C)(C)C)n(C)c1=O	15.8%	15.1	-3.0%	0.0%
CC(C)(C)OC(=O)N1CCN(CCNC(=O)c2ccccc2)CC1	0.4%	·	-2.0%	-4.1%
CCOc1ccc2[nH]c(=O)c(CN(CCc3ccccc3)C(=O)c3cnccn3)cc2c1	-19.7%	-5.4	2.7%	-4.1%
COC(=O)c1c(C(=O)OC)c(-c2ccccc2)n2c1CS(=O)C2 (centres undefined)	0.4%	-4.5	0.3%	-2.0%
CCOc1ccccc1/C=N/N1CCN(Cc2ccccc2)CC1	-1.6%	·	2.9%	8.8%
Cc1cccc(NS(=O)(=O)c2cccc(C(=O)N3CCC3)c2)c1	-5.6%	·	6.0%	·
CCCCOn1c(C)c(C(=O)OCC)c2c3nonc3ccc21	10.2%	·	-2.6%	·
OC1(c2ccccc2F)CCN(Cc2nnnn2Cc2ccc(F)cc2)CC1	1.9%	-0.9	-0.9%	-5.4%
Cc1ccc(CCC(=O)Nc2ncc(Cc3cccc(Cl)c3Cl)s2)o1	-7.6%	-7.5	-4.6%	23.7%
COc1cc(C(=O)Oc2cc(C)[nH]c(=O)c2[N+](=O)[O-])cc(OC)c1OC	-13.6%	-3.7	4.7%	-0.7%
CCNc1nc(NCC)nc(OCCOC(=O)COc2ccc(Cl)cc2Cl)n1	4.0%	-11.0	0.2%	-2.8%
CC1CCN(Cc2ccc(-c3nn[nH]n3)cc2)CC1	-9.8%	-9.3	-3.1%	-1.8%
CCCn1c(Cc2ccccc2)nnc1SC(C)C(=O)NC1CC1 (centres undefined)	-0.6%	·	4.5%	·
Cc1cc2oc(=O)cc(CN3CCOCC3)c2cc1C	-4.2%	6.3	?	-12.5%
CCOc1cc(/C=N/N=C2/NC(=O)C(CC(=O)O)S2)ccc1OS(=O)(=O)c1ccc(C)cc1 (centres undefined)	8.7%	-14.9	-1.1%	-1.0%
O=C1OC(Nc2nc3ccccc3s2)c2ccccc21 (centres undefined)	-11.0%	2.9	0.1%	-27.1%
Cc1ccc(C(=O)NCCNc2ccc(Cl)cc2[N+](=O)[O-])o1	3.8%	-7.4	3.2%	1.7%
COC(=O)c1sc(NC(=O)c2cc(C)on2)nc1C	12.8%	·	6.1%	-33.3%
O=C(Nc1ccc(C(=O)O)cc1)/C(=C\c1ccco1)NC(=O)c1ccc(Br)o1	-12.4%	·	?	-1.0%
Cn1c(NC(=O)c2ccc(Br)o2)cc(=O)n(C)c1=O	-17.2%	4.6	-2.4%	1.7%
COc1ccc(/C=N/NC(=O)c2cc[n+]([O-])cc2)cc1O	32.8%	·	-1.9%	1.7%
CCOc1ccc(-c2nnc(NC(=O)Cc3cc(OC)c(OC)c(OC)c3)o2)cc1	-12.1%	·	-6.4%	-24.5%
Cc1ccc(S(=O)(=O)N2CCN(S(=O)(=O)c3cccs3)CC2)cc1	-3.1%	·	0.6%	-44.8%
COc1nc(NCCc2ccc(OC)c(OC)c2)nc(NC(C)(C)CO)n1	8.7%	-2.4	-1.2%	-3.5%
COC(=O)C1=C(C)N(CC2CCCO2)C(=O)/C1=C\c1ccc(O)cc1 (centres undefined)	-13.6%	-6.6	1.0%	0.7%
Clc1ccc(C(Cn2ccnc2)OCc2c(Cl)cccc2Cl)c(Cl)c1 (centres undefined)	6.5%	·	2.3%	·
CC(=O)Nc1nnc(SCC(=O)N2CCCc3ccccc32)s1	14.4%	-4.3	0.3%	-1.2%
C/C(CC(=O)NCc1ccc(Cl)cc1)=N\NC(=O)c1ccccc1F	8.7%	-3.7[21.1 µM]	0.6%	-38.8%
NC(=O)CCN1CCN(Cc2cn[nH]c2-c2cccc3ccccc23)CC1	-13.2%	8.5	-0.3%	-1.4%
O=C(Nc1ccccc1F)c1cnccn1	1.5%	-13.8[21.1 µM]	1.8%	-24.3%
CN(C(=O)CSc1nnc(-c2ccccc2F)n1N)C1CCCCC1	-5.4%	·	-3.0%	·
CC1CC(=O)Nc2ccccc2N1S(=O)(=O)c1cccs1 (centres undefined)	1.1%	1.2	-0.6%	-1.2%
Cc1c(C(=O)OCC(=O)N2CCCCC2C)oc2ccccc12 (centres undefined)	26.6%	·	5.9%	·
O=C(c1ccc(Cl)s1)N(Cc1nnc(-c2ccccc2Cl)o1)C1CC1	-0.2%	·	-0.1%	·
COCCN(C(=O)c1cccc(-n2cnnn2)c1)c1c(N)n(CC(C)C)c(=O)[nH]c1=O	-3.6%	·	-0.2%	·
CC(C)(C)C1C/C(=C/c2ccccn2)C(=O)/C(=C/c2ccccn2)C1 (centres undefined)	0.0%	-9.5	?	?
Cc1ccc(S(=O)(=O)NCC(=O)NCC(=O)N(C)Cc2ccc3ccccc3c2)cc1C	3.1%	·	-2.0%	17.7%
Cc1cc(C)cc(NC(=S)NCCc2c[nH]c3ccccc23)c1	-0.8%	?	-5.4%	12.2%
NCc1ccc(S(N)(=O)=O)cc1	5.7%&-7.2%	4.0&2.1&4.6	-1.8%&5.4%	-10.3%
Cc1nc2ccccc2c(=O)n1NC(=O)c1cccc([N+](=O)[O-])c1	-8.6%	9.2	1.3%	1.1%
CN(C)c1ccc(C2N(C)C(=O)c3ccccc3N2C)cc1 (centres undefined)	1.8%	·	-2.5%	9.8%
O=C(NCC1COc2ccccc2O1)C1(c2ccccc2)CCCC1 (centres undefined)	-23.3%	-5.3	-4.3%	5.2%
Cc1nn(-c2ccc(N3CCCCC3)nn2)c(C)c1CCC(=O)Nc1cc(F)ccc1F	1.4%	·	0.3%	-16.5%
CCCCn1nc2cc(C(=O)NC3CCCc4ccccc43)ccc2c1OCC (centres undefined)	-5.1%	-1.8	-2.7%	1.2%
CCc1cc2c(=O)c(-c3nc4ccccc4n3C)c(C)oc2c(CN2CCN(CCO)CC2)c1O	3.7%	2.4	2.7%	-0.3%
O=C(NCc1ccc(F)cc1)C(c1ccccc1)N(C(=O)c1csnn1)C1CC1 (centres undefined)	-2.0%	7.8	1.0%	-2.0%
c1ccc(C2CCC(N3CCC(N4CCCCC4)CC3)CC2)cc1 (centres undefined)	·	-3.1	·	-10.9%
Other structures
SMILES	Rango release inh	GLA inh pH 4.5	Rango-impB inh	miR-21 reporter
Cn1c(=O)c2[nH]c(CCCCCCCc3nc4ccccc4[nH]3)nc2n(C)c1=O	1.4%	·	-4.3%	·
NC(=O)c1cc([N+](=O)[O-])ccc1NCCN1C(=O)c2ccccc2C1=O	·	-7.2	·	-3.1%
CCOC(=O)C1(Cc2cccc(OC)c2)CCCN(Cc2cc(C(C)C)n[nH]2)C1 (centres undefined)	-10.7%	-10.2	0.1%	-0.4%
COc1cc(/C(C)=N/NC(=O)c2nnn(-c3nonc3N)c2-c2cccs2)ccc1O	-6.3%	·	2.4%	-19.5%
CCCCOc1c(Cl)cc(CNC(C)(C)CO)cc1OCC	0.2%	-7.5	0.0%	-2.9%
CCCn1c(N)c(N(CCOC)C(=O)c2ccc(-c3ccc(Cl)cc3)o2)c(=O)[nH]c1=O	-8.4%	·	-2.4%	·
COc1ccc(NC(=O)Nc2cccc3c2O[C@H](CN(C)S(=O)(=O)c2ccccc2)[C@@H](C)CN([C@H](C)CO)C3=O)cc1	1.8%	·	0.6%	·
Cc1ccc(N(CC(=O)NCc2ccncc2)S(C)(=O)=O)cc1	5.2%	4.7	1.2%	-2.4%
CC(=O)Nc1ccc(NC(=O)C(C)OC(=O)c2ccc3[nH]c(C)c(C)c3c2)cc1 (centres undefined)	-11.0%	·	?	·
O=C(CCCOc1ccccc1)Nc1nnc(C2CCCO2)s1 (centres undefined)	-1.3%	6.7	0.2%	-7.7%

The closing two entries of the section before are carried over, then new ones follow:
SMILES	Rango release inh	GLA inh pH 4.5	Rango-impB inh	miR-21 reporter
CC(=O)Nc1ccc(NC(=O)C(C)OC(=O)c2ccc3[nH]c(C)c(C)c3c2)cc1 (centres undefined)	-11.0%	·	?	·
O=C(CCCOc1ccccc1)Nc1nnc(C2CCCO2)s1 (centres undefined)	-1.3%	6.7	0.2%	-7.7%
COc1ccc(-c2cc(C)no2)cc1S(=O)(=O)NCCCN1CCN(c2ccccc2)CC1	18.8%	·	-2.4%	22.9%
O=C(NC1CCN(Cc2ccccc2)CC1)c1ccccc1Cl	0.6%	·	-0.1%	-4.1%
Cc1cc(C)nc(NS(=O)(=O)c2ccc(N=Cc3c(C)[nH]n(-c4ccccc4)c3=O)cc2)n1	-1.6%	-0.8	6.7%	-5.7%
CN(Cc1ccccc1)C(=O)c1cc(-c2ccc(Br)cc2)on1	3.1%	1.3	-3.7%	-58.3%
Cc1ccc(NC(=O)CCn2cc(C(F)(F)F)ccc2=O)cc1	5.2%	-4.8	2.0%	6.1%
Cc1ccc(NC(NC(=O)OCCn2c([N+](=O)[O-])cnc2C)C(Cl)(Cl)Cl)cc1 (centres undefined)	·	-10.9	·	-8.9%
Cc1ccccc1Nc1c(-c2ccc(N3CCOCC3)cc2)nc2ncccn12	?	-9.6	?	-25.5%&-30.2%
c1ccc(Cn2nnc3c(N4CCN(Cc5ccc6c(c5)OCO6)CC4)ncnc32)cc1	13.2%	-2.3	-4.7%	5.4%
